NPYLR7 ag: mosquito NPYLR7 agonism; HEK293T NPYLR7/Galpha15, GCaMP6s calcium fluorescence; activation, % at 10 µM; hit rate 0.15% among 270,000; AID 1259423; in the data active = activation above about 40%;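 also: 0% = vehicle and 100% = reference agonist at the receptor; some compounds past the cut are filed as inactive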
NPYLR7 ag max-min: also measured in NPYLR7 ag; calls as there; activation, %; measured here: Max-Min RFU normalised activation; some inactives read as strong as hits;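 span of the calcium signal over five minutes; 0% = vehicle and 100% = native peptide agonist; compound fluorescence can raise it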
The depositor's hits bear a star; & = joins results of further samples. The list is partial (hit frequency here may not be typical).

SMILES	NPYLR7 ag	NPYLR7 ag max-min
COc1ccc(CNC(=O)c2nnn(Cc3ccccc3)c2N)cc1	-1	7
N#CC(C=Nc1ccc(S(=O)(=O)NC(N)=O)cc1)c1nc(-c2ccc(Cl)cc2)cs1 (stereo unspecified)	2	-1
COCCN1CCC(CN(C)c2nc3nonc3nc2NC2CCCC2)CC1	4	1
Cc1ccc(S(=O)(=O)N(CC(=O)N(Cc2ccccc2)Cc2cccn2Cc2ccc(F)cc2)CC(C)C)cc1	-9	-4
Cc1cc(-c2cccc(F)c2)nnc1N(C)CCNS(C)(=O)=O	2	0
O=C(NCc1ccc(F)cc1)c1ccccc1N1CCC(NS(=O)(=O)c2ccccc2)CC1	2	9
C=C(C)Cn1c(=O)c2c(nc3n2CC(C)CN3CCc2ccccc2)n(C)c1=O (stereo unspecified)	1	4
CCCNC(=O)c1cccc(Nc2c(Oc3ccc(F)cc3F)cnn(C)c2=O)c1	27	22
COc1ncccc1CNS(=O)(=O)c1ccccc1F	10	7
O=S(=O)(c1ccc2c(c1)OCCO2)N1CCN(Cc2nnnn2-c2ccccc2)CC1	0	-2
Cc1ccc(-c2ccc(=O)n(CCCNC(=O)NCc3ccccc3)n2)cc1	-1	-3
Cc1c(Br)c(C(F)(F)F)nn1CC(=O)NC12CC3CC(CC(C3)C1)C2	20	19
Cc1cc(C)c(NC(=O)CSc2ccc(NC(=O)C(C)C)nn2)c(C)c1	0	-2
COC(=O)c1cc(NC(=O)c2cccs2)cc(C(=O)OC)c1	-7	11
O=C(NCc1ccccc1)N1CCN(Cc2cccs2)CC1	0	1
Nc1c(S(=O)(=O)O)cc(Nc2cccc3ccccc23)c2c1C(=O)c1ccccc1C2=O	-15	-17
CN1C(=O)N(Cc2cccnc2)C(=O)C12CCN(CCc1ccccc1)CC2	4	-11
CSC1=N/C(=C\c2ccc(Br)cc2)C(=O)S1	4	2
c1csc(-c2noc(CN3CCN(C4CCc5ccccc5C4)CC3)n2)c1 (stereo unspecified)	1	-1
O=c1c2c3c(sc2ncn1Cc1cc(Cl)cc2c1OCOC2)CCC3	-1	16
COc1ccc(S(=O)(=O)Oc2ccc(-c3nc4cc(C)ccn4c3NC(C)(C)CC(C)(C)C)cc2OC)cc1	4	9
C=CCC(C)(C)CN1CCCC(CNC(C)=O)C1 (stereo unspecified)	7	-4
CC1CCCCC1=NNC(N)=O (stereo unspecified)	-1	-7
Cc1ccccc1-n1c(SCC(=O)NC2CC2)nnc1N1CCOCC1	-6	-10
Cc1ncc(CN2CCN(Cc3ccccc3F)C(CCO)C2)s1 (stereo unspecified)	-6&-1	-7&-8
Cc1cc(C(=O)Nc2sccc2S(C)(=O)=O)c(C)s1	5	4
CC(=O)c1ccc(NC(=O)CC(NCCC2=CCCCC2)C(=O)O)cc1 (stereo unspecified)	0	5
CN(C)c1ccc(N)cc1CN(Cc1ccco1)C(=O)c1cccc(F)c1	-6	0
Cc1ccccc1OCCSc1nc2ccccc2[nH]1	11	9
CN(CC(=O)Nc1ccc(F)cc1)C(=O)CN1C(=O)CSc2ccccc21	-18	-17
O=C(CSc1nnc(Nc2ccccc2Cl)s1)N1CCCCC1	10	3
Cc1cc(NC(=O)CN(C)Cc2ccco2)no1	9	17
CCC(=O)N1CCN(C(=O)Nc2ccc(OC3CCCC3)cc2)CC1	7	3
CC(O)(CC(=O)N1CCC2(CC1)OC(=O)c1ccccc12)C(F)(F)F (stereo unspecified)	7	9
CC(C)(C)NC(=O)N1CCn2cccc2C1c1ccccc1 (stereo unspecified)	8	3
COc1ccc(C)cc1S(=O)(=O)n1nc(C)cc1C	-6	-7
CCC(C)(C)C1CCc2sc3ncnc(NCCN4CCOCC4)c3c2C1 (stereo unspecified)	10	6
Cc1n[nH]c(C)c1CCNC(=O)c1cn(CCc2ccccc2)nn1	8	2
CC(=O)c1cccc(NC(=O)Cn2c3ccc(C)cc3c3ncn(Cc4ccccc4)c(=O)c32)c1	-4	-7
COc1ccc(-c2c3c(=O)n(Cc4cccnc4)ccc3nc3ncnn23)cc1	3	3
CN(Cc1ccccc1C(F)(F)F)C(=O)c1ccc(-n2cc(NC(=O)c3cccnc3)cn2)cc1	3	3
COCCNC(=O)c1cc2n(n1)CCN(CC1CC1)C2=O	0	5
O=C(Cc1cccs1)Nc1nnc(SCC2CC2)s1	1	5
NC(=O)c1csc(NC(=O)c2cc(F)c(Cl)nc2Cl)n1	5	3
Cc1cccc(CN2CCN(c3ccc(Cl)cc3Cl)C(=O)C2C)c1 (stereo unspecified)	1	1
CCOC(=O)c1cn[nH]c1S(=O)(=O)N(C)c1ccccc1	-4	-9
COc1ccc2[nH]cc(CCNS(=O)(=O)c3ccc4[nH]cc(C(=O)O)c(=O)c4c3)c2c1	1	-2
COc1ccccc1-c1ccc(N2C[C@@H](C)O[C@@H](C)C2)nn1	-13	-12
CN(CCO)c1ncnc2cc(-c3ccc(Br)cc3)sc12	-2	-6
Cc1cc2nc(-c3ccccc3)c(N3CCCN(C(=O)c4cccnc4Cl)CC3)nc2cc1C	5	0
COc1ccc(S(=O)(=O)Oc2ccc(CN(C(=O)C3CCC3)C3CC3)cc2)cc1	19	25
Cc1cccc2c1C(=O)NC1(CCN(C(=O)COc3ccccc3)CC1)N2	0	5
C=CCN1C(=O)NC(c2cccc(Cl)c2)C2=C1CN(CC(=O)Nc1ccccc1Cc1ccccc1)C2=O (stereo unspecified)	-2	-1
CCCCC(=O)NCc1cccc(-c2ncc(-c3ccccc3)[nH]2)c1	-1	-3
Cc1ccc(Cc2nsc(NCCC(c3ccccc3)c3ccccc3)n2)cc1	3	10
CCOc1cc(C#N)cc(I)c1OC(C)C	1	7
COc1ccccc1NC(=O)N(C)C1CCN(C)CC1	8	4
NC(CSc1ccncc1)C(=O)O (stereo unspecified)	2	44
Oc1ccccc1C(Nc1ccccn1)c1ccc2cccnc2c1O (stereo unspecified)	2	8
OCC(O)Cn1cc(-c2ccc3c(c2)Cc2ccccc2-3)nn1 (stereo unspecified)	3&-3	3&-7
New compounds follow.
SMILES	NPYLR7 ag	NPYLR7 ag max-min
COc1ccc(CC(C)N(C)C(=O)C2CCCN(C(=O)C(C)(C)C)C2)cc1 (stereo unspecified)	9	3
CC(NC(=O)Cn1ncc2ccccc2c1=O)c1cccs1 (stereo unspecified)	7	5
CC(C(=O)NCc1cccs1)n1c(=O)c(C#N)c2n(c1=O)CCCCC2 (stereo unspecified)	9	7
Cc1ccc(CNC(=O)c2cncn2-c2cccc(-c3cccc4c3sc3ccccc34)c2)o1	6	4
Cc1nc(Nc2ccc(NC(=O)Nc3cccc(Cl)c3)cc2)cc(OC(C)C)n1	19	18
CCOC(=O)C(c1cccc(OC)c1)C1C=CC(NC(=O)c2ccc(Cl)nc2)C1 (stereo unspecified)	0	-6
CC(C)C(=O)Nc1ccc(N(C)C)c(CN(C(=O)c2ccc(F)cc2)C2CCCCC2)c1	-2	10
NC(=O)c1ccc(NC(=O)Cn2nc(-c3ccc(F)cc3)c3sc(N4CCCC4)nc3c2=O)cc1	-3	-5
CCNc1nnc(SCC(O)c2ccc(F)cc2)s1 (stereo unspecified)	5	2
CCOc1cnn(Cc2ccccc2)c(=O)c1Nc1cccc(C(=O)N2CCCCC2)c1	15	14
O=C1CC2(CCN(C(=O)CC3(CC(=O)N4CCC5(CC4)CC(=O)c4cc(F)ccc4O5)CCCC3)CC2)Oc2ccc(F)cc21	-8	-14
CC(C)N(C)S(=O)(=O)N1CSCC1C(=O)NCC1CC1 (stereo unspecified)	0	-2
Cc1ccc(S(=O)(=O)c2ccc(NNC(=O)C3CCCC3)cc2)cc1	-4	-2
CCOC(=O)N1CCN(C(c2ccccc2Cl)c2c(O)cc(C)n(CCOC)c2=O)CC1 (stereo unspecified)	12	2
CCC(CNC(=O)c1ccc(Br)o1)c1ccccc1 (stereo unspecified)	7	15
COc1cccc(CNc2nn[nH]n2)c1OCc1ccccc1Cl	-4	-8
COc1ccc(NC(=O)CNC(=O)CNCc2ccco2)cc1	28	29
COc1ccc(CC2=NOC(CNC(=O)COc3ccc(C)cc3)C2)cc1 (stereo unspecified)	25	18
O=c1[nH]ncc(NCCc2cccc(F)c2)c1Cl	-5	-7
COc1ccc2nc(CN3CCN(CC(=O)N4CCCC4)CC3)[nH]c2c1	7	6
CN1C[C@@H]2CC[C@H](CC1=O)N2Cc1cnc(N2CCOCC2)s1	-4	-7
O=C(CCn1[nH]c(=O)ccc1=O)Nc1nc(-c2ccc(Cl)s2)cs1	8	9
Cc1oc(-c2ccccc2Cl)cc1C(=O)N(C)Cc1noc(C(C)C)n1	5	1
O=C(C1CCC1)N(Cc1nccn1Cc1ccc(Cl)cc1Cl)C1CC1	3	12
COc1ccc(-n2nnc3c(=O)n(CC(=O)N4CCOCC4)cnc32)cc1	6	4
CCOC(=O)Cn1c(=O)c2c(nc3n2CC(C)CN3c2ccc(C)c(C)c2)n(C)c1=O (stereo unspecified)	12	12
CNC(=O)C(C#N)Cc1cc2cc3c(cc2nc1Cl)OCO3 (stereo unspecified)	-3	-6
COc1c(C)cc(S(=O)(=O)NCCn2nc(-c3ccc(F)cc3)ccc2=O)c(C)c1C	-4	-5
Cc1nc(Cl)cc(NC2CCN(C(=O)OC(C)C)CC2)n1	9	8
CCOC(=O)c1cc(C#N)c(SC(C)C(=O)N2CCCCCC2)nc1C (stereo unspecified)	-1	13
CC(C)NS(=O)(=O)c1ccc(C(=O)Nc2nc3ccc(F)cn3n2)cc1	5	0
Cc1ccoc1C(=O)NCCC(=O)Nc1cccc2ccccc12	1	8
O=C(c1ncoc1-c1ccccc1)N1CCOC(c2ccc(Cl)cc2)C1 (stereo unspecified)	4	0
Cc1nc(CNc2cccc(OC(F)F)c2C)cs1	7	3
CCc1ccc(Cl)c(CC)c1NC(=O)Cn1cnnn1	6	1
O=C(Cc1cccs1)N=Nc1c(O)[nH]c2ccc(F)cc12	2	-2

Molecules above that contain a thiophene ring, fused or not:
SMILES	NPYLR7 ag	NPYLR7 ag max-min
COC(=O)c1cc(NC(=O)c2cccs2)cc(C(=O)OC)c1	-7	11
O=C(NCc1ccccc1)N1CCN(Cc2cccs2)CC1	0	1
c1csc(-c2noc(CN3CCN(C4CCc5ccccc5C4)CC3)n2)c1 (stereo unspecified)	1	-1
O=c1c2c3c(sc2ncn1Cc1cc(Cl)cc2c1OCOC2)CCC3	-1	16
Cc1cc(C(=O)Nc2sccc2S(C)(=O)=O)c(C)s1	5	4
CCC(C)(C)C1CCc2sc3ncnc(NCCN4CCOCC4)c3c2C1 (stereo unspecified)	10	6
O=C(Cc1cccs1)Nc1nnc(SCC2CC2)s1	1	5
CN(CCO)c1ncnc2cc(-c3ccc(Br)cc3)sc12	-2	-6
CC(NC(=O)Cn1ncc2ccccc2c1=O)c1cccs1 (stereo unspecified)	7	5
CC(C(=O)NCc1cccs1)n1c(=O)c(C#N)c2n(c1=O)CCCCC2 (stereo unspecified)	9	7
Cc1ccc(CNC(=O)c2cncn2-c2cccc(-c3cccc4c3sc3ccccc34)c2)o1	6	4
O=C(CCn1[nH]c(=O)ccc1=O)Nc1nc(-c2ccc(Cl)s2)cs1	8	9
O=C(Cc1cccs1)N=Nc1c(O)[nH]c2ccc(F)cc12	2	-2

High-throughput results: PubChem, Fisher Drug Discovery Resource Center
